Source: PubChem (National Center for Advancing Translational Sciences (NCATS))
VDR inhibitor = vitamin D3 receptor (human) inhibition; VDR-SRC2-3 peptide fluorescence polarization, 2 h; Potency, µM, for the others: max response, negative = inhibition, hits mostly inhibitors; actives 0.93% (n = 400,000); active = well fitted inhibition curve with a large enough effect; inconclusive = small, poorly fitted or top-dose-only effect, or another doubt; inactive = no such curve, though single readings can be large or run the other way; note: series mostly up to about 120 µM
Target sequence (P11473 whole entry, looked up): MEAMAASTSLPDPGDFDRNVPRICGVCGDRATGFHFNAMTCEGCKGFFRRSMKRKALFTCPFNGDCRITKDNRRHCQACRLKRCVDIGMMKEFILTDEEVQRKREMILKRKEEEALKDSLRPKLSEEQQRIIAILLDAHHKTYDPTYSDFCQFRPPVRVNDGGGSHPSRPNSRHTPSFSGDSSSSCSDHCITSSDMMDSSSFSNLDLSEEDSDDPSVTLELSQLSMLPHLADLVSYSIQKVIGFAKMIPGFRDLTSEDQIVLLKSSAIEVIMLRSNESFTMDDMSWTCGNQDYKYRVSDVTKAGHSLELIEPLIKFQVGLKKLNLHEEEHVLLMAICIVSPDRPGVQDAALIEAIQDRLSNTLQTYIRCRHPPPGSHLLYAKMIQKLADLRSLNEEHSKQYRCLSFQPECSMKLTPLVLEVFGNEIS
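FP read-out; VDR + SRC2-3 coactivator peptide; 23 nl compound by pintool; 2 h RT incubation; reagents held at 4 deg C, protected from light.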
Starred values were filed as active, the others as inactive; ? = inconclusive; & = joins results of further samples. % is set by controls: 0 for no effect and ±100 for the full control effect; potency is the fitted concentration of half-maximal effect.

structure,VDR inhibitor
CCCCc1nn2c(=O)cc(COC(=O)c3ccccc3NC(=O)c3cccc(C)c3)nc2s1,-1.1%
Cc1ccc(-c2nc(N)n(S(C)(=O)=O)n2)cc1,11.5%
C[C@@H]1CCCCCCCCCCC1=O,14.9%
COc1ccc2oc(=O)c(C(=O)Oc3ccc(NC(C)=O)cc3)cc2c1,-6.2%
Cc1cccc(NC(=O)CSc2nnc(C3CC3)n2CC2CCCO2)c1 (stereo not given),1.9%
Cc1nc(-c2ccc(Cl)cc2)sc1CCNC(=O)C(=O)Nc1ccc(F)cc1F,6.2%
CC1CCCC(C)N1C(=O)CN1C(=O)C(C)(C)Oc2ccc(C(=O)NC3CCCCC3)cc21 (stereo not given),10.7%
Cc1ccc(-c2nc3ccccc3s2)cc1NC(=O)c1ccc2c(c1)OCO2,7.6%
COc1ccc(S(=O)(=O)NCC2CCC(C(=O)NCc3cccnc3)CC2)cc1 (stereo not given),-2.6%
OC(COC(c1ccccc1)c1ccccc1)CN1CCN(c2ccccn2)CC1 (stereo not given),20.2%
CCN(C(=O)c1ccc(Br)o1)C1CCS(=O)(=O)C1 (stereo not given),5.8%
CCOC(=O)[C@H]1[C@H]2COc3ccc(Cl)cc3[C@@H]2N2C(=O)CN(Cc3ccc(C)cc3)C(=O)[C@@]12C,-2.5%
O=C(CN1CCCCC1)Nc1nc(-c2ccc(Cl)cc2)cs1,-6.1%
CCCN1CCC2(CC1)NC(C(=O)O)Cc1c2[nH]c2ccccc12 (stereo not given),-10.9%
O=C(COc1cccc(C(F)(F)F)c1)N1CCN(c2ccccc2O)CC1,18.8%
CC(C)c1ccc(-n2ccnc2SCC(=O)O)cc1,-2.7%

Single entries from the list:
VDR inhibitor, `CCCN1CCC2(CC1)NC(C(=O)O)Cc1c2[nH]c2ccccc12` (stereo not given) → -10.9%
VDR inhibitor, `CCOC(=O)[C@H]1[C@H]2COc3ccc(Cl)cc3[C@@H]2N2C(=O)CN(Cc3ccc(C)cc3)C(=O)[C@@]12C` → -2.5%
VDR inhibitor, `COc1ccc(S(=O)(=O)NCC2CCC(C(=O)NCc3cccnc3)CC2)cc1` (stereo not given) → -2.6%
VDR inhibitor, `O=C(CN1CCCCC1)Nc1nc(-c2ccc(Cl)cc2)cs1` → -6.1%

Remaining list, next part
structure,VDR inhibitor
COc1ccc(CCN(C)CCC(=O)Nc2cc(C)ccc2C)cc1OC,1.8%
Cc1ccc(-c2cc3c(n2-c2ccc(C(=O)O)cc2)CCCC3=O)cc1,-21.8%
CCCN1C2CCCC1CC(NC(=S)Nc1cc(C)cc(C)c1)C2 (stereo not given),0.2%
CCS(=O)(=O)c1ncc(N(Cc2ccc(F)cc2)Cc2ccco2)c(C(=O)Nc2cc(C)ccc2C)n1,-5.2%
O=C(COc1ccccc1C(=O)O)NC1CCCc2ccccc21 (stereo not given),-7.4%
Nc1nc(SCC(=O)NCCCN2CCOCC2)nc2sc3c(c12)CCC3,-5.7%
CC(C)CCNC(=O)c1cn(C)c2ccc(S(=O)(=O)N3CCCC3)cc2c1=O,-10.6%&-3.8%
Cc1cc(C)c(C(=O)Nc2ccc(C)c(C)c2)c(CC(C)(C)C(=O)O)c1,4.2%
Cc1ccc(OC/C(O)=C(\C#N)c2nc3ccccc3s2)cc1,0.7%
Cn1c(=O)c2c(SCC(=O)NCc3ccco3)nc(-c3ccccc3)nc2n(C)c1=O,1.8%
CCCc1c(O)nc(SC2CC(=O)N(c3ccc(OC)cc3)C2=O)[nH]c1=O (stereo not given),19.0%
O=S(=O)(N/N=C/c1cn(Cc2ccccc2)c2ccccc12)c1ccccc1,17.2%
COc1ccc(-c2csc(/N=C/N(C)C)n2)cc1OC,-22.8%
C=CCN1C(c2ccc(Br)cc2)=CS/C1=C(\C#N)c1nnc(N2CCOCC2)n1-c1ccccc1,4.9%
O=C(NCCN1CCCC1)C1CCC(=O)N(CCCN2CCOCC2)C1 (stereo not given),1.3%
CNC(=O)CSc1nnc(SCCC(=O)O)s1,3.9%
O=C(Nc1ccc(Cl)c([N+](=O)[O-])c1)c1ccc2c(c1)OCCO2,-7.8%
CN(CC(=O)NCc1ccccc1)S(=O)(=O)c1ccc2c(c1)CCC(=O)N2,5.9%
Cc1cc(OCC(=O)NNC(=O)c2ccncc2)ccc1C(C)C,-4.2%
CCOC(=O)C1(Cc2cccc(OC)c2)CCCN(C(=O)c2cc(C)[nH]n2)C1 (stereo not given),10.4%
COc1ccccc1C1CCN(Cc2ccccc2)CC1,3.2%
COc1cc(OC)c(C2Nc3cccc4cccc(c34)N2)c(OC)c1,-5.1%
CC(Sc1n[nH]c(N)n1)C(=O)C12CC3CC(CC(C3)C1)C2 (stereo not given),1.2%
Cc1cc(Nc2cccc(F)c2)nc(N2CCOCC2)n1,3.7%
Cc1ccccc1N(C(=O)c1snc(C(N)=O)c1N)C(C)C(=O)NC1CCCCC1 (stereo not given),-1.5%
CCOC(=O)c1sc(NC(=O)c2cccc(S(=O)(=O)N(CC)CC)c2)cc1C,11.1%
Cc1csc(N2CCc3ccccc32)n1,-6.7%
CCC1SC(=NC(=O)c2ccc(Cl)c(Cl)c2)NC1=O (stereo not given),-8.6%
C=C1CCN([C@@H](CC(C)C)C(=O)N2CCCC2)S(=O)(=O)c2ccccc21,-22.2%
CC(=O)NC1CC(=O)N(c2ccc3c(c2)OCCO3)C1 (stereo not given),9.3%
CCC(C)Sc1nc2c(c(=O)[nH]c(=O)n2C)n1CC(O)COc1cccc2ccccc12 (stereo not given),-1.6%
O=C(c1ccc(CSc2nc3ccncc3n2Cc2ccccc2)cc1)N1CCCCCC1,6.1%
COc1ccc(NC(=O)CN(C)C(=O)CCNC(=O)c2ccccc2OC)cc1,-1.3%
Cc1cccc(OCC(=O)NCCCNC(=O)c2ccccn2)c1,-1.1%
COc1ccc(C(=O)Nc2ccnn2C2CCN(C(=O)c3cnsn3)CC2)cc1,-8.0%
Cc1ccc2[nH]c(O)c(N=NC(=O)C3CC3c3ccccc3)c2c1Br (stereo not given),-14.3%
CCC(CC)C(=O)c1c[nH]c(C(=O)N2CCN(c3ccccc3)CC2)c1,-15.0%
Cc1ccc(C2C(C#N)=C(N)N(c3ncn[nH]3)C3=C2C(=O)CC(C)(C)C3)cc1 (stereo not given),-0.3%
CCc1ccccc1N(CC)C(=O)C(=O)Nc1ccc2nc3n(c(=O)c2c1)CCCCC3,2.0%
Cc1ccc2c(c1)N(CCC(=O)NCC1COc3ccccc3O1)C(=O)CO2 (stereo not given),1.8%
Cc1cccc(-c2nnc3n(CCc4ccccc4)c(=O)c4ccccc4n23)c1,8.4%
O=[N+]([O-])c1ccc(C2CCCC/C2=N/O)c([N+](=O)[O-])c1 (stereo not given),5.4%
COc1cc(OCC(N)=O)cc(OC)c1OC,-18.6%
O=C(Nc1nccs1)c1ccc(-c2ccc(Cl)cc2Cl)o1,-19.5%
CCCCCCCSc1nnc(N)s1,4.9%
Cc1ccc(CNC(=O)c2ccc(N3CCCC3)c(NC(=O)Nc3ccc(F)c(Cl)c3)c2)cc1,6.7%
COc1ccc(-n2c(SCC(=O)Nc3cc(C)on3)nc3ccc(O)cc3c2=O)cc1OC,9.1%
O=c1ccc(/C=C/c2ccccc2)nn1Cc1ccccc1Cl,-5.9%
CCN(CC)C(=O)COc1cccc2ccccc12,-1.8%
CN(C)CC1(C)Cc2ccsc2C1O (stereo not given),-3.6%
COc1ccc(C(=O)NCc2nnc(SCC(=O)Nc3nnc(C)s3)o2)cc1,-11.9%
CCN(CC(=O)Nc1c(F)cccc1F)C(=O)c1cccc(S(=O)(=O)NCc2ccccc2)c1,-9.8%
Cc1c(C)n(Cc2ccccc2)c2ncnc(Cl)c12,10.4%
CCOc1ccc(NC(=O)CN2CCN(c3ccc(F)cc3)CC2)cc1,-11.9%
CCOC(=O)c1sc(NC(=O)C2CC(=O)N(c3ccc(C)cc3)C2)nc1C (stereo not given),24.6%
CCOC(=O)c1sc2nc(C)[nH]c(=S)c2c1C,10.2%

Further compounds:
structure,VDR inhibitor
CC(=O)Nc1ccc(C2=CC(=O)CC(C)(C)C2)cc1,-15.6%
CCCNC(=O)C1CCN(c2ccc(S(=O)(=O)N3CCOCC3)cc2Cl)CC1,-5.4%
C=CCn1c(SCc2c(C)noc2C)nc2sc3c(c2c1=O)CCCC3,4.4%
CSc1ccccc1NC(=S)N/N=C/c1cccn1Cc1cccc(C)c1,-10.3%
CN(CC(=O)NC(=O)NCc1ccccc1)CC(=O)Nc1ccc(Cl)c(C(F)(F)F)c1,5.6%
Cc1sc2ncn(CC(=O)NCCCC(=O)N3CCN(c4ncccn4)CC3)c(=O)c2c1C,4.7%
CC(C)OC(=O)CSc1nc(C(C)C)nc2ccccc12,-8.0%
COc1ccc(NC(C)=O)cc1CNC(=O)COc1ccccc1C(=O)Nc1cccc(C)c1C,16.8%
Nc1cc(=O)[nH]c(SCc2cccc(Cl)c2)n1,-2.4%
CSc1nc(Cl)cc(Nc2ccc(O)cc2)n1,-5.5%
Cc1sc2ncn(CC(=O)NCC(=O)N(C)Cc3ccccc3)c(=O)c2c1C,-1.8%
O=S(=O)(c1ccc(F)cc1)N1CCN(S(=O)(=O)c2cc(F)ccc2F)CC1,?
O=C(CSc1n[nH]c(-c2ccccc2)n1)N1CCOCC1,-16.6%
O=C(Cc1c(C(=O)O)[nH]c2ccc(Cl)cc12)Nc1ccc2c(c1)OCCO2,?
CCCNC(=O)c1ccccc1NC(=O)C1COc2ccccc2O1 (stereo not given),-12.9%
Nc1nc(-c2cccnc2)nn1C(=O)c1ccc(Cl)cc1,-5.2%
O=C(Cc1ccccc1)c1c[nH]c(C(=O)O)c1,-8.5%
COc1ccc(CCNC(=O)CCc2cn(Cc3ccccc3Cl)c3ccccc23)c(OC)c1,-1.6%
CCc1nn(C(CC)C(=O)NCc2ccc(F)cc2)c(=O)c2cc3occc3n12 (stereo not given),6.8%
Cc1ccc(C(=O)Oc2ccccc2N2CCOCC2)cc1,-19.7%
FC(F)Oc1ccc(/C=N/n2c(Cc3ccc(Br)cc3)n[nH]c2=S)cc1,79.4µM*
Cc1ccc(-c2noc(CSc3nnc(Cc4cccs4)n3-c3ccccc3)n2)cc1,-21.2%
O=C(NCc1ccccc1)NC1(C(=O)Nc2ccc3c(c2)OCCO3)CCCCC1,11.3%
CCOC(=O)c1c(NC(=O)C2(C)Cc3ccccc3C(=O)O2)sc2c1CCCC2 (stereo not given),79.4µM*
Cc1ccc(-c2noc(CNS(=O)(=O)c3ccc(F)cc3)n2)cc1,13.4%
O=C(Nc1cc(S(=O)(=O)N2CCCCC2)ccc1Cl)c1ccncc1,7.0%
CC(=O)Oc1ccc(/C=C2\C=C(c3ccc(C)cc3)OC2=O)cc1,-4.3%
Cc1occc1-c1nnc(SCC(=O)N2CCN(c3ccc(F)cc3)CC2)n1C,-19.9%
CCC(C(=O)NC1CC1)n1nc(C)c2c(C)n(-c3ccc(C)cc3)nc2c1=O (stereo not given),-7.7%
Cc1ccc(/C=C/S(=O)(=O)NCc2ccc(F)cc2)cc1,-6.6%
CCOC1(OCC)C(c2ccc(N)cc2)C(C#N)(C#N)C1(OCC)OCC (stereo not given),-10.9%
CSc1cccc(NC(=O)CN2C(=O)c3ccccc3S2(=O)=O)c1,-18.8%

In the list so far, two have a CF3 group:
structure,VDR inhibitor
O=C(COc1cccc(C(F)(F)F)c1)N1CCN(c2ccccc2O)CC1,18.8%
CN(CC(=O)NC(=O)NCc1ccccc1)CC(=O)Nc1ccc(Cl)c(C(F)(F)F)c1,5.6%

Additional entries:
structure,VDR inhibitor
CC(C)(C)Nc1nc2cc([N+](=O)[O-])ccc2o1,-9.7%
COc1cc(C(=O)NCCc2ccc(S(=O)(=O)N3CCCC3)cc2)cc(OC)c1OC,2.5%
CCCS(=O)(=O)C(=C(Nc1ccc(OC)cc1)Nc1ccc(OC)cc1)S(=O)(=O)CCC,2.9%
Cc1nc(N2CCN(S(=O)(=O)c3ccccc3C#N)CC2)c2c(-c3ccccc3)csc2n1,-22.7%
O=C(N/N=C/c1cc(Br)ccc1O)C(=O)Nc1ccccc1OC(F)(F)C(F)F,14.6%
CCOc1ccc(S(=O)(=O)N(CC(=O)Nc2ccc(OC)cc2OC)c2ccccc2)cc1,-8.3%
Cc1ccc(/C=C/C(=O)Nc2ccc(Oc3ccccc3)cc2)o1,-10.0%
Cc1cc(C)cc(N(CC(=O)NC(C)(C)C)C(=O)CNC(=O)c2cccs2)c1,-12.5%

An excerpt from above in order of count of non-hydrogen atoms, ascending.
structure,VDR inhibitor
CCCCCCCSc1nnc(N)s1,4.9%
Cc1ccc(C(=O)Oc2ccccc2N2CCOCC2)cc1,-19.7%
CCCc1c(O)nc(SC2CC(=O)N(c3ccc(OC)cc3)C2=O)[nH]c1=O (stereo not given),19.0%

Other records follow:
structure,VDR inhibitor
COc1ccc(C(=O)NC2CCN(C(=O)Nc3ccccc3Cl)CC2)cc1,-5.1%
COc1ccccc1CNC(=O)C1CCN(Cc2cc3ccccc3n2Cc2cccc(C)c2)CC1,7.6%
CC(=O)Nc1ccc(S(=O)(=O)N2CCC(C(=O)NCCC(=O)Nc3ccccc3)CC2)cc1,-15.3%
N#Cc1cccc(NC(=O)CN2CCCCCC2)c1,-8.5%
CCCN1CCN(C(=O)c2oc3c(Cl)cccc3c2C)CC1,-4.8%
COC(=O)Cn1nnc2c(cnn2-c2ccccc2)c1=O,-5.2%
O=C(CC1C(=O)NCCN1C(=O)c1ccc([N+](=O)[O-])cc1)Nc1ccc(F)cc1 (stereo not given),11.4%
CCN(CC)CCNC(=O)CSc1nc2nc(C)c(Cc3ccccc3)c(C)n2n1,-10.3%

A portion of the library, so the mix of outcomes need not match the whole.
